Compound activity from PubChem BioAssay.
Ecoli rRNA inh – reduced GFP signal of wild-type E. coli, primary screen, bacterial rRNA inhibitor project, GFP/RFP fluorescence, OD600, single point; E. coli WT GFP vs humanized-ribosome RFP mutants, 24 h; hits give low values; DMSO median 0, no signal -100; GFP signal change (wild-type ribosome), % (test concentration not listed); 350,000 compounds, 1.6% hits; AID 720706, 2013;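 active means significant combined selectivity score with lowered wild-type GFP, culture density cut under 30%, mutant RFP and density less affected; inactive means any of these conditions unmet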; further: one replicate is shown; some compounds called inactive have numbers as strong as hits
Beta2AR agonist – beta2AR agonists driving receptor internalization, primary screen, cell-based, FAP fluorogen, flow cytometry. Beta-2 adrenergic receptor (Homo sapiens), P07550. Am2.2-beta2AR cells; reference of the scale not given here. response, % (test concentration not listed). 340,000 compounds, 0.43% hits. AID 504454, 2011;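 active means response above a set limit, near 3 SD of response in nonfluorescent compounds, cut at about 42% in these data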;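 further: stock transfer was 100 nL into about 11 µL; a reference agonist was the positive control; negative values mostly stem from fluorescent compounds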
HNF4A DNA FP – change in binding of human HNF4A to DNA, primary screen, biochemical, fluorescence polarization, FITC-DNA. Hepatocyte nuclear factor 4-alpha (Homo sapiens), P41235. 1 h. activity change, % at 10 µM. 360,000 compounds, 0.3% hits. AID 1224865, 2016; in the data active means activity change above about 30%, passing the limit was not always enough;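 further: controls were the assay level and a saturating level of protein; the project sought stronger binding though the title names inhibitors; some compounds called inactive have numbers as strong as hits; positive values seem to mean higher polarization but the record does not say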
Target sequence (P41235 whole entry, looked up): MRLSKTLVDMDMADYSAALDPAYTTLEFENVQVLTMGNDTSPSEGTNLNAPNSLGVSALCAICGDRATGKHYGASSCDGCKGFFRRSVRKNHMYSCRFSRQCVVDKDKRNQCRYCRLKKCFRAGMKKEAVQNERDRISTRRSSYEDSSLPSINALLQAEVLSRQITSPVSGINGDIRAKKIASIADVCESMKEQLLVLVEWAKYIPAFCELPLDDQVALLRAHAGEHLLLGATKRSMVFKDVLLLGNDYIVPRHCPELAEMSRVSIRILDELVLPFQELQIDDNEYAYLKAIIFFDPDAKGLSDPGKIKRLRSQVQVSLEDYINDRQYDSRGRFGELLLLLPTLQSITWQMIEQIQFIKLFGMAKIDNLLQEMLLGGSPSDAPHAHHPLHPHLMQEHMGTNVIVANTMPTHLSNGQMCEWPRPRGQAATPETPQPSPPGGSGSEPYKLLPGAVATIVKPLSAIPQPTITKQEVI
Ecoli growth – E. coli growth inhibition, primary screen, OD600. Escherichia coli growth, 23 h; hits give low values. OD600 absorbance (test concentration not listed). 330,000 compounds, 0.21% hits. AID 1053175, 2014;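 active means OD600 absorbance below the run mean of sample wells minus 3.6 SD, in any replicate, cut at about 0.56 in these data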;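 further: stock transfer was 300 nL into about 60 µL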
ALR inh – inhibitors of human ALR sulfhydryl oxidase, primary screen, biochemical, H2O2 detection, HRP-luminol luminescence, single point | FAD-linked sulfhydryl oxidase ALR (Homo sapiens), P55789 | purified ALR, DTT oxidation | inhibition, % (concentration not given with the values) | 290,000 compounds, 3.8% hits;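 active means mean and each replicate at 75% or more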;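 further: stock transfer was 7.5 nL into about 7.5 µL; 0% = neutral wells and 100% = wells with inactivated enzyme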
Target sequence (P55789 whole entry, looked up): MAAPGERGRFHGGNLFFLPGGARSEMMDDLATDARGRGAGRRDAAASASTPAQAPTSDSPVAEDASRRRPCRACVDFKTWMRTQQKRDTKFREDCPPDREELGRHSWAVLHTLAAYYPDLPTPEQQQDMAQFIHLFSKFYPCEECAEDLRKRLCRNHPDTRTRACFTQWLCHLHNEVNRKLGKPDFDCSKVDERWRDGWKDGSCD
UCH37 inh – inhibitors of human UCH37 deubiquitinase, primary screen, biochemical, Ub-AMC cleavage, fluorescence | Ubiquitin carboxyl-terminal hydrolase isozyme L5 (Homo sapiens), Q9Y5K5 | purified proteasome/UCH37 | inhibition, % (test concentration not listed) | 330,000 compounds, 0.33% hits | AID 588478, 2011;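 active means mean of two replicates above 20%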;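 further: 0% = compound-free wells with enzyme and 100% = wells lacking proteasome; stock transfer was 100 nL into about 20 µL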
Target sequence (Q9Y5K5 whole entry, looked up): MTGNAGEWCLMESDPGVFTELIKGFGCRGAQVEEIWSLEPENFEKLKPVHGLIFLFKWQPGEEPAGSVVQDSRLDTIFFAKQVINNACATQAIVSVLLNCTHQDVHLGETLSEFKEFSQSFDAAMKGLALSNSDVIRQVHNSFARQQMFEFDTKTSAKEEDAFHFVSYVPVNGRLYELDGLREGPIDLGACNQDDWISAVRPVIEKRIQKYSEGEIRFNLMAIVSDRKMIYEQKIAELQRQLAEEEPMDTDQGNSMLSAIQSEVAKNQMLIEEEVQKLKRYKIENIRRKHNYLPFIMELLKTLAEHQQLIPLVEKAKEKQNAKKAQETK
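Reagent: Ub-AMC substrate; assay system: Proteasome-associated human UCH37 deubiquitinase; controls: no-proteasome and no-compound wells; read-out: % inhibition of Ub-AMC cleavage fluorescence; timing: 30 min preincubation with enzyme, 25 min cleavage at room temperature; signal: AMC fluorescence from Ub-AMC cleavage, excitation 355 nm, emission 460 nm; buffer or medium: Tris-HCl pH 7.4 plus ovalbumin, ATP-MgCl2, DTT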
FGF22 binding – binders of human FGF22 protein, primary screen, FGF22 synaptogenesis inhibitor project, biophysical, thermal shift, single point; 340,000 compounds, 1.5% hits; AID 651658, 2012; Fibroblast growth factor 22 (Homo sapiens), Q9HCT0; calls only at 9.99 µM; recombinant FGF22 thermal shift, SYPRO orange fluorescence; percent of sucrose octasulfate shift, DMSO zero;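 active means melting point raised past a set limit in the mean and every replicate; three in four hits are not shown here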
Ecoli rRNA inh OD600 – further read-out of Ecoli rRNA inh, marked with its call; OD600 change, %; measured here: OD600 growth;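 optical density of the mix in the first replicate; 0 = DMSO median and -100 = no signal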
Ecoli rRNA inh RFP – recorded beside Ecoli rRNA inh, whose call it bears; RFP signal change, %; measured here: RFP humanized mutant strains;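 first replicate; 0 = DMSO median and -100 = no signal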
The depositor's hits bear a star; i = inactive; · = not tested or not shown; & = joins results of further samples. These rows are one share of the data; the hit share may differ from the screen's.

SMILES	Ecoli rRNA inh	Ecoli rRNA inh OD600	Ecoli rRNA inh RFP	Beta2AR agonist	HNF4A DNA FP	Ecoli growth	ALR inh	UCH37 inh	FGF22 binding
CNC(=O)CCC(=O)Nc1ccc(C(=O)OC)cc1	·	·	·	3	1.7	0.7	·	1.5	·
C/C(CC(=O)Nc1cc(Cl)ccc1Cl)=N\NC(=O)c1ccco1	·	·	·	-7	3.8	·	15	·	·
Nc1c(N(CCC2=CCCCC2)C(=O)C2CC2)c(=O)[nH]c(=O)n1Cc1ccccc1	8	-2	2.4	-1	1.5	0.67	22	6.6	i
Cc1cccc(C(=O)OCC(=O)NCCCc2ccccc2)c1O	11	1	0.4	-3	3.0	0.63	·	-13	i
COc1ncnc2c1oc1nc(C(C)C)c3c(c12)CC(C)(C)OC3	·	·	·	-21	-4.9	0.69	-31	-0.1	·
C[C@H](NC(=O)[C@@H]1Cc2ccccc2CN1)C(=O)NCC1CCCO1 (stereo partly drawn)	1	-1	0.7	-2	0.1	0.71	2	2.3	i
CN1C2C=C3C(C#N)=C(N)C(C#N)(C#N)[C@@H](c4cccc(F)c4)[C@@H]3C1CC2 (stereo partly drawn)	·	·	·	10	0.6	0.77	·	-21	·
CN(C)CCn1cnc2c(c1=N)C(c1ccccc1)c1ccc3ccccc3c1O2 (stereo not drawn)	-67	-82	-19	15	0.5	0.64	-31	8.0	i
Cc1ccc(C(=O)NNC(=O)c2ccc3ccccc3c2O)cc1	-27*	-18*	-10*	-3	0.9	0.66	·	-5.0	i
CCOC(=O)c1ccc(CNC(=O)C(Cc2c[nH]c3ccccc23)NC(C)=O)o1 (stereo not drawn)	·	·	·	1	-3.1	0.73	-5	6.1	·
CCn1cc(S(=O)(=O)c2ccc(OC)cc2)c(=O)c2cc(OC)ccc21	-2	-7	-1.7	2	1.9	0.66	-16	-11	i
C=CCNC(=O)C1CC(=O)N(c2ccc(OCC(=O)Nc3ccc(Cl)cc3)cc2)C1 (stereo not drawn)	0	4	-2.2	-4	-0.9	0.68	-7	0.3	i
COc1ccccc1CNC(=O)c1c(O)c2cc(OC)c(OC)cc2[nH]c1=O	·	·	·	4	2.5	0.73	-2	-48	·
CC1CCCCC1NC(=O)Cn1c(=O)oc2cc(S(=O)(=O)N3CCCC3)ccc21 (stereo not drawn)	4	6	2.0	-5	3.4	0.75	-5	7.5	i
COc1cccc2cc(C(=O)NCc3ccco3)c(=O)oc12	·	·	·	-1	-1.0	0.7	-3	-1.5	i
Cc1ccc(S(=O)(=O)CC(CN2CCOCC2)N2CCOCC2)cc1 (stereo not drawn)	20	17	-3.0	-9	2.0	0.67	-3	4.1	i
CCOc1ccc(NC(=O)CN(C)C(=O)c2csc3c2CCCC3)cc1OCC	0	-4	0.8	-7	4.1	0.63	·	4.2	i
Cc1nc2ccccc2n1CCOc1ccccc1	-16	-16	0.5	6	0.7	0.65	-2	0.6	i
CC(C)CSC1=NSC2=NC(=O)/C(=C\c3cccs3)C(=N)N12	·	·	·	8	9.7	0.71	27	5.5	·
CCOC(=O)C1=C(COC(=O)Cc2ccc(Br)cc2)NC(=O)NC1C (stereo not drawn)	-5	-4	-5.0	0	3.1	0.73	6	1.3	i
CCC1Oc2ccccc2N(CC(=O)NC2CCCC2)C1=O (stereo not drawn)	4	11	-1.2	13	1.5	0.65	-5	0.0	i
CC(C)[C@H](NC(=O)N1CCn2c1nc1ccccc12)C(=O)N[C@@H](C(=O)O)c1ccccc1	·	·	·	2	-3.2	0.7	·	0.5	i
COC(=O)C1=C(C)N(C(C)C)C(=O)C1(NC(C)=O)C(F)(F)F (stereo not drawn)	·	·	·	-8	-1.8	0.69	-3	5.0	·
O=S(=O)(c1ccc(N2CCOCC2)cc1)N1CCOCC1	·	·	·	-4	1.0	0.74	-4	0.1	·
CCN(c1ccccc1)S(=O)(=O)c1ccc(OC)c(NC(=O)CNC)c1	6	0	2.0	2	1.1	0.67	8	0.3	i
Cn1cc(SCC(=O)NC2CCCC2)c2ccccc21	7	7	1.5	10	-1.3	0.71	3	4.6	i
O=C(NC(=S)Nc1ccc2c(c1)OCCO2)c1ccccc1	-3	-19	2.5	-22	15	0.7	-3	3.5	·
COc1cc(NC(=O)c2ccc(Cl)cc2)c(Cl)cc1NC(=O)c1cccnc1	6	10	-1.2	-1	0.8	0.71	-15	-112	i
NC1=NC(=O)/C(=C/c2c(OS(=O)(=O)c3ccc(Cl)cc3)ccc3ccccc23)S1	0	15	-1.7	-10	-1.8	·	-19	·	i
CC(=O)c1ccc(N2CCN(C(=O)C3CCN(C(=O)Nc4ccccc4)CC3)CC2)cc1	-7	-12	-2.3	3	1.4	0.68	4	5.0	i
Cc1ccc(S(=O)(=O)n2cccc2C)cc1	13	4	3.1	-3	-0.2	0.66	-9	1.4	i
COc1ccccc1N1CCN(C(=O)CCCCCn2c(=O)[nH]c3ccsc3c2=O)CC1	-9	-3	-0.6	17	5.4	0.69	61	2.7	i
COc1ccc(NC(=O)c2cccc(NC(=O)c3ccco3)c2)c(OC)c1	·	·	·	-5	3.1	0.66	-1	0.8	·
CCCCn1c(SCC(=O)NC2CC2)nc2ccccc2c1=O	10	15	-1.5	-12	4.8	0.71	-8	0.9	i
O=C(NC1CCCCC1)N(C1=NCCCCC1)c1ccc(Br)cc1	·	·	·	-1	-1.0	0.74	·	4.3	·
COCC(C)NC(=O)CSc1nc2nn(-c3ccccc3)c(=O)c-2c2n1CCCCC2 (stereo not drawn)	-6	2	-0.7	-9	4.5	0.69	·	1.7	i
C#CCOCCOCCOCCNc1nc(N2CCN(C(=O)CCCCCCCCCCNC(=O)[C@@H](CCSC)n3cc(CCO)nn3)CC2)nc(N2CCN(C(=O)CCCCCCCCCCNC(=O)[C@H](CCSC)n3cc(CCO)nn3)CC2)n1	8	12	-0.7	7	0.8	·	-26	4.3	i
O=C(C1=C[C@@H](c2ccc(C(F)(F)F)cc2)C[C@@H](OCc2ccc(CO)cc2)O1)N1CCN(Cc2ccccc2)CC1	6	4	3.2	8	1.1	·	·	2.7	i
COc1ccc(Br)cc1C1=CC(=O)C[C@H](c2ccc(F)cc2)C1	-26	-32	-10.0	·	-5.0	·	·	·	i
NC(=O)c1ccsc1NC(=O)COC(=O)Cc1n[nH]c(=O)c2ccccc12	16	17	0.7	-1	1.7	0.64	-8	1.9	i
Cc1cccc(C(C(=O)NC2CCCC2)N(C(=O)c2csnn2)C2CCCC2)c1 (stereo not drawn)	-3	4	-3.3	1	-1.0	0.7	0	0.5	·
O=c1[nH]c2cc(NCCO)c([N+](=O)[O-])cc2[nH]1	-15	-30	-4.1	-5	4.5	0.71	·	13	i
O=C(C1=C[C@H](c2coc3ccccc3c2=O)C[C@H](OCc2ccc(CO)cc2)O1)N1CCN(Cc2ccc3c(c2)OCO3)CC1	-10	-4	20	16	0.1	·	-7	4.3	i
N#Cc1ccccc1CSC1=NCCS1	3	3	-1.2	-2	-1.5	0.64	-1	-0.4	i
Cc1ccc2ncnc(Oc3ncccc3NC(=O)C(C)(C)C)c2c1	0	6	0.5	1	-1.6	0.67	-6	-0.1	i
CCN(CC)S(=O)(=O)c1ccc(N/N=C(\C)c2ccc3c(c2)OCO3)c([N+](=O)[O-])c1	·	·	·	-1	1.6	·	-3	·	·
CNC[C@H]1Oc2ccc(NC(=O)Nc3ccccc3)cc2CC(=O)N([C@H](C)CO)C[C@H]1C	6&8	11&-6	-0.2&-3.0	2	12	0.77	4	2.6	i
CC(NC(=O)C1CCN(C(=O)Nc2ccccc2)CC1)c1ccccc1 (stereo not drawn)	7	13	-2.9	0	3.6	0.66	·	5.5	i
CC1CCCC(NC(=O)Cn2cc3c(n2)CCCCC3)C1C (stereo not drawn)	0	-13	2.9	3	2.2	0.73	·	3.6	i
Cc1cccc(NC(=O)CNC(=O)CNC(=O)Cc2ccccc2)c1	4	10	2.0	-5	2.0	0.68	-7	0.3	i

Some of the entries so far, in CSV form:
SMILES,Ecoli rRNA inh,Ecoli rRNA inh OD600,Ecoli rRNA inh RFP,Beta2AR agonist,HNF4A DNA FP,Ecoli growth,ALR inh,UCH37 inh,FGF22 binding
O=C(C1=C[C@@H](c2ccc(C(F)(F)F)cc2)C[C@@H](OCc2ccc(CO)cc2)O1)N1CCN(Cc2ccccc2)CC1,6,4,3.2,8,1.1,·,·,2.7,i
COc1ccc(Br)cc1C1=CC(=O)C[C@H](c2ccc(F)cc2)C1,-26,-32,-10.0,·,-5.0,·,·,·,i
NC(=O)c1ccsc1NC(=O)COC(=O)Cc1n[nH]c(=O)c2ccccc12,16,17,0.7,-1,1.7,0.64,-8,1.9,i
Cc1cccc(C(C(=O)NC2CCCC2)N(C(=O)c2csnn2)C2CCCC2)c1 (stereo not drawn),-3,4,-3.3,1,-1.0,0.7,0,0.5,·
O=c1[nH]c2cc(NCCO)c([N+](=O)[O-])cc2[nH]1,-15,-30,-4.1,-5,4.5,0.71,·,13,i
O=C(C1=C[C@H](c2coc3ccccc3c2=O)C[C@H](OCc2ccc(CO)cc2)O1)N1CCN(Cc2ccc3c(c2)OCO3)CC1,-10,-4,20,16,0.1,·,-7,4.3,i
N#Cc1ccccc1CSC1=NCCS1,3,3,-1.2,-2,-1.5,0.64,-1,-0.4,i
Cc1ccc2ncnc(Oc3ncccc3NC(=O)C(C)(C)C)c2c1,0,6,0.5,1,-1.6,0.67,-6,-0.1,i
CCN(CC)S(=O)(=O)c1ccc(N/N=C(\C)c2ccc3c(c2)OCO3)c([N+](=O)[O-])c1,·,·,·,-1,1.6,·,-3,·,·
CNC[C@H]1Oc2ccc(NC(=O)Nc3ccccc3)cc2CC(=O)N([C@H](C)CO)C[C@H]1C,6&8,11&-6,-0.2&-3.0,2,12,0.77,4,2.6,i

The list continues.
SMILES	Ecoli rRNA inh	Ecoli rRNA inh OD600	Ecoli rRNA inh RFP	Beta2AR agonist	HNF4A DNA FP	Ecoli growth	ALR inh	UCH37 inh	FGF22 binding
CN(C)S(=O)(=O)c1cccc(C(=O)Nc2ccccc2C(=O)NC2CC2)c1	-2	-3	2.6	-19	2.6	0.65	-13	-0.2	i
Cc1ccccc1C(=O)Nc1ccc(C(=O)N/N=C/c2ccccn2)cc1	2	7	-0.7	-9	-1.7	·	-4	·	i
CCOc1cc2nc(-c3ccc(OC)c(OC)c3)nc(N3CCOCC3)c2cc1OC	·	·	·	·	·	0.7	-28	-11	·
COC(=O)c1ccc2c(=O)n(CCCCCC(=O)NC(C)C)c(=O)[nH]c2c1	1	6	-0.4	-3	-1.9	0.74	-2	-39	i
